# Screens: PubChem BioAssay, Johns Hopkins Ion Channel Center
# KCNQ2 enhance: potentiators of rat KCNQ2 potassium channel | CHO-K1 KCNQ2, FluxOR thallium flux fluorescence; stronger effect = higher value | AID 2239 | O88943 | B-score at 10 µM | hit rate 0.54% among 310,000;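 active = fluorescence ratio B-score at least 3 SD of library B-scores, with initial fluorescence B-score within 3 SD, cut at about 5.3 in these data; same plate scores as AID 2156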;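 also: B-score of peak minus minimum over baseline fluorescence ratio after K+ and Tl+ stimulus; positive B-score means potentiation of KCNQ2 with more thallium influx and brighter signal; only the inactives scoring about 0 or higher are listed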
# Target sequence (O88943 whole entry, looked up): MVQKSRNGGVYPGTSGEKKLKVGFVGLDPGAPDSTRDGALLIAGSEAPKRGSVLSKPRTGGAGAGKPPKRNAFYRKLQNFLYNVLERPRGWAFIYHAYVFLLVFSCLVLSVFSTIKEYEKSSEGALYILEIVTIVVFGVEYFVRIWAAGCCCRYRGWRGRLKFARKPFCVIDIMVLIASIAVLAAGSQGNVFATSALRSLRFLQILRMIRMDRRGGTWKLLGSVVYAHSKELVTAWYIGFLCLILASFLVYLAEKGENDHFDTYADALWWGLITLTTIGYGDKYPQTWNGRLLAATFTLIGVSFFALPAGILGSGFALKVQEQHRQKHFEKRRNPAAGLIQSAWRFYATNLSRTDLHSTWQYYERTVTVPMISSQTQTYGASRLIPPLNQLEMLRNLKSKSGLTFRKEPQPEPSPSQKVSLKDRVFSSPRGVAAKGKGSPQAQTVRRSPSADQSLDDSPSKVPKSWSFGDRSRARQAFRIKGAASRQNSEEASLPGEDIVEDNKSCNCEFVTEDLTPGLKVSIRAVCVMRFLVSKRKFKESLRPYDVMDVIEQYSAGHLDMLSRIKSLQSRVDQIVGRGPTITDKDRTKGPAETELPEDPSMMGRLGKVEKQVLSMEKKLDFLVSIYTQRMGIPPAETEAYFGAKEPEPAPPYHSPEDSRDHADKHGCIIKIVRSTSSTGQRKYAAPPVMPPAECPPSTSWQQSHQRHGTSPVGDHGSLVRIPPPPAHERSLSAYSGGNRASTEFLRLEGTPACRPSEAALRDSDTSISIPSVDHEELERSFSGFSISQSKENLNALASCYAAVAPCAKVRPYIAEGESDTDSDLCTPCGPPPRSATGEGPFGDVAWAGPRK
# KCNQ2 enhance baseline: recorded beside KCNQ2 enhance, whose call it bears; B-score; compound at 10 µM; measured here: initial fluorescence intensity artifact check;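 brightness before thallium and not channel activity; 0 = typical well and far values either way flag optical interference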
# An asterisk follows results filed as active; & = joins results of further samples. This is a subset. The share of hits here may be higher or lower than overall.
SMILES,KCNQ2 enhance,KCNQ2 enhance baseline
Cc1ccc(NC(=O)C2CCCN(S(=O)(=O)c3ccc(-n4cnnn4)cc3)C2)cc1 (stereo not given),0.46,-0.98
O=C(Nc1ccc(N2CCOCC2)cc1)C1CCCCN1S(=O)(=O)c1ccccc1 (stereo not given),0.1,-1
O=C(Nc1ccc(N2CCN(Cc3ccccc3)CC2)cc1)c1ccccc1[N+](=O)[O-],0.37,0.51
Clc1nc2sccn2c1/C=N/n1cnc2ccccc21,0.2,0
CCN(CC)S(=O)(=O)c1ccc(NC(=O)C(C)N(c2ccc(OC)cc2)S(C)(=O)=O)cc1 (stereo not given),0.05,-1.2
O=C(CSc1cn(CC(=O)N2CCCC2)c2ccccc12)NCC1CCCO1 (stereo not given),2.1,0.3
O=C(NC(=S)Nc1ccccc1N1CCOCC1)c1sc2ccccc2c1Cl,0.64,-0.02
COc1ccccc1NC(=O)COc1ccc(/C=N/NS(=O)(=O)c2ccc(C)cc2)cc1,0.77,-0.39
CCN(C(=O)c1cc2cccc(OC)c2oc1=O)C1CCCCC1,0.87,0.41
O=C(NCCCCCCNC(=O)C1CCCC1)C1CCCC1,0.01,-0.92
CCC(C)(NC(=O)c1ccc2c(c1)OCO2)C(=O)NC1CCCCC1 (stereo not given),0.3,-0.35
Cc1cccc(C(C)C)c1NC(=O)COC(=O)c1cccc(S(=O)(=O)N2CCc3ccccc3C2)c1,0.88,-1.1
NC(=O)c1[nH]cnc1N,1&0.62,-0.72&-1.1
COc1ccccc1N(CC(=O)Nc1ccc(C(F)(F)F)cc1)S(C)(=O)=O,0.05,0.01
O=C(O)c1ccc(OCCOc2ccccc2)cc1,0.14,-0.05
CSc1n[nH]c2nc3c(c(=O)n12)C1(CCCC1)Cc1ccccc1-3,0.1,0.31
C#CC[N+]1(CC#Cc2ccccc2)CCCCC1,0.12,-0.04
COc1cc(C(=O)N2CCC3(CC2)NCCc2[nH]cnc23)cc(OC)c1OC,0.47,-0.08
O=C(N/N=C/C=C/c1ccccc1)c1ccccn1,0.74,-0.01
CC(=O)N1CCc2c(sc(NC(=O)c3ccc([N+](=O)[O-])o3)c2C#N)C1,0.12,0.96
O=C(Nc1cc(-c2nc3ncccc3o2)ccc1Cl)c1cccs1,0.73,-1.2
CCn1c(=S)sc2c(=O)n(CC(=O)Nc3ccccc3)c(C)nc21,1.3,-1.9
O=C(/C=C/c1cc(Br)ccc1F)Nc1cccnc1,0.67,-0.13
COCCn1c(=O)c2c(nc3n2CCCN3Cc2ccccc2)n(C)c1=O,0.77,0.9
COc1ccccc1NS(=O)(=O)c1ccc(C(=O)N2CCCC(C)C2)cc1 (stereo not given),2.2,-2.1

# Among those listed so far, these have a nitro group on carbon.
SMILES,KCNQ2 enhance,KCNQ2 enhance baseline
O=C(Nc1ccc(N2CCN(Cc3ccccc3)CC2)cc1)c1ccccc1[N+](=O)[O-],0.37,0.51
CC(=O)N1CCc2c(sc(NC(=O)c3ccc([N+](=O)[O-])o3)c2C#N)C1,0.12,0.96

# The list goes on.
SMILES,KCNQ2 enhance,KCNQ2 enhance baseline
COC(=O)c1sc(-c2ccc(C(C)(C)C)cc2)cc1NC(=O)CCC(=O)O,2.3,-0.18
COc1ccc(NCc2cccnc2)cc1,0.51,1.1
COc1ccc(C)cc1NC(=O)CN(C)S(=O)(=O)c1ccc2c(c1)CC(C)N2C(C)=O (stereo not given),0.65,0.56
Cc1c(Br)c([N+](=O)[O-])nn1CC(=O)Nc1sc2c(c1C(=O)OC(C)C)CCCC2,0.53,0.03
Cn1cnc([N+](=O)[O-])c1NC(C)(C)C,0.13,-2
CC(C)(C)CC(=O)O/N=C(\N)c1ccncc1,1.4,-0.52
CCN1C(=O)CCCc2ccccc21,0.92,-0.4
CN1CCN(S(=O)(=O)c2ccc(C(=O)Nc3ccccc3)cc2)CC1,0.46,-2.5
CCOCCCNC(=O)c1ccc(OC)cc1,0.19,-0.08
COCCCn1c(SCC(=O)NC2CCCC2)nnc1-c1ccncc1,0.57,-2.7
Cc1csc(=O)n1CC(=O)OCC(=O)NCc1ccccc1,0.16,0.87
O=C(NCC1CCN(Cc2ccc(F)cc2)CC1)Nc1cc(F)ccc1F,0.94,0.68
COc1ccc(OC)c(S(=O)(=O)NCCOC23CC4CC(CC(C4)C2)C3)c1,1.2,-1.5
COc1cc(OC)cc(C(=O)NC(=S)NNC(=O)c2cnccn2)c1,0.17,-1.2
CC(=O)c1ccc(C(=O)N2CCCC(C(=O)c3cc(F)ccc3F)C2)s1 (stereo not given),2.2,-1.9
COc1cc(C(=O)NCc2nnc(SCC(=O)N3CCC(C)CC3)o2)cc(OC)c1OC,0.53,-0.08
COc1ccc(NC(=S)N2CCCC2)c(OC)c1,0.04,-1.6
Cc1noc(C)c1C(=O)OCC(=O)C12CC3CC(CC(C3)C1)C2,0.98,1.9
O=C1N/C(=C/c2ccc(Br)cc2)C(O)=C1C=NCc1ccccc1,0.24,0.64
CC(=O)c1ccc(N2CCN(C(=O)c3n[nH]c4ccccc34)CC2)cc1,0.12,1.4
CC1CCC2C(=O)N(c3ccc(C(=O)NCc4ccccc4)cc3)C(=O)C2C1 (stereo not given),0.17,0.04
O=C(O)CCCC(=O)Nc1ccc(N=Nc2ccccc2)cc1,0.48,-1.4
COc1ccc(C(=O)Oc2ccc(N(C)S(=O)(=O)c3ccccc3)cc2)cc1[N+](=O)[O-],0.3,-0.63
CCCSc1nc2c(cnn2-c2ccccc2)c(=O)n1N,0.64,-0.09
COc1cc(CNCc2cccnc2)ccc1OCC(=O)NC1CCCCC1,0.4,0.7

# Retrieved by compound from the list above (four):
SMILES,KCNQ2 enhance,KCNQ2 enhance baseline
O=C(NCC1CCN(Cc2ccc(F)cc2)CC1)Nc1cc(F)ccc1F,0.94,0.68
CC(=O)c1ccc(C(=O)N2CCCC(C(=O)c3cc(F)ccc3F)C2)s1 (stereo not given),2.2,-1.9
CCOCCCNC(=O)c1ccc(OC)cc1,0.19,-0.08
Cc1csc(=O)n1CC(=O)OCC(=O)NCc1ccccc1,0.16,0.87

# Next part
SMILES,KCNQ2 enhance,KCNQ2 enhance baseline
COc1ccc(-c2nc(-n3c(C)c(C(C)=O)c(C(C)=O)c3C)sc2C)cc1OC,0.03,-0.71
O=C(CSC1=NCCS1)Nc1ccccc1F,0.43,0.76
COc1cc(/C=C/C(=O)OCC(=O)Nc2c(C)n(C)n(-c3ccccc3)c2=O)ccc1O,1.1,0.58
CC(C)NC(=O)CSc1nnc(-c2ccc3ncccc3c2)n1C,0.02,-1.4
COCCSc1ccccc1C(=O)Nc1ccncc1,0.06,-1
Cc1cc2c(c(=O)n1CCc1ccccc1)C(C(C)C)C(C#N)=C(N)O2 (stereo not given),1.1,0.01
Cc1cccc(-c2nnc3n2N=C(c2ccccc2)CS3)c1,0.94,-0.01
COc1ccc(S(=O)(=O)N2CCc3ccccc32)cc1C(=O)NCCc1ccccn1,0.14,0.67
CCn1c(CCc2nc3ccccc3[nH]2)n[nH]c1=S,0.45,0.13
O=C(O)Cc1csc(NC(=O)CSc2cccc(C(=O)O)n2)n1,0.17,0.78
Cc1cc(C(=O)CSc2n[nH]c(N)n2)c(C)n1-c1ccc(F)cc1,0.56,-0.07
Cc1oc2cc3oc(=O)c(CCC(=O)N[C@H](C(=O)O)C(C)C)c(C)c3cc2c1C,1.7,0.07
O=C(Cn1cc(S(=O)(=O)Cc2ccccc2)c2ccccc21)N1CCOCC1,2.3,0.93
CC(NC(=O)C1CCN(C(=O)Nc2ccccc2)CC1)c1ccccc1 (stereo not given),0.62,-2.1
CCOC(=O)/C=C/c1nc(C(=O)OCC)c(C)c(=O)[nH]1,0.22,0.53
O=C1c2ccccc2C(=O)N1/N=C/c1ccc(O)c(O)c1,0.1,-0.1
O=C(NCc1ccccn1)c1coc(=O)c(Br)c1,1,1.3
COC(=O)Nc1ccc(S(=O)(=O)N2CCCC(C(=O)NC3CCCCC3)C2)cc1 (stereo not given),0.72,-0.12
CN(C)C(=O)CSc1nnc(-c2cnccn2)n1C,2.8,1.2
Cc1ccc(C)c(S(=O)(=O)NCC(=O)N2CCCC2)c1,1.4,1.4
CCOC(=O)N1CCN(Cc2nc(N)nc(Nc3ccc(C)cc3)n2)CC1,0.71,-0.08
Cc1cccc(NC(=O)CN(C)S(=O)(=O)c2cccc3cccnc23)c1,1.4,-2.6
Brc1cc2ccccc2[n+](Cc2ccccc2)c1,0.71,0
O=C(/C=C/c1ccc(Cl)c([N+](=O)[O-])c1)Nc1ccc(NC(=O)c2ccco2)cc1,0.03,-0.91
Fc1ccc(-c2cc(-c3cccs3)cc(-c3ccccc3)n2)cc1,1.5,-0.07
# Remaining list, next part.
SMILES,KCNQ2 enhance,KCNQ2 enhance baseline
COc1ccc(-n2ncc3c(=O)n(CC(=O)N4c5ccccc5CC4C)cnc32)cc1 (stereo not given),0.02,-0.91
CCN1C(=O)c2cccc3c(S(=O)(=O)N(C(=O)c4ccncc4)c4ccc(OC)cc4)ccc1c23,0.67,-1.3
Cc1ccc(C)c(NC(=O)COC(=O)c2ccc3c(c2)OCO3)c1,0.19,-1.5
N#Cc1ccsc1NC(=O)c1cccc([N+](=O)[O-])c1,0.29,-0.43
CCN(C(=O)Cn1nnc(-c2ccccc2)n1)C1CCS(=O)(=O)C1 (stereo not given),0.81,-0.07
Cc1ccc(-n2c(O)cnc2Nc2nc(C)cc(C)n2)cc1,0.7,0.1
Cc1ccc(NC(=S)N(CCCN2CCOCC2)Cc2cccnc2)cc1C,0.38,1.5
CS(=O)(=O)Nc1ccccc1C(=O)NCCSc1ccc(Cl)cc1,0.82,-0.8
O=C(O)/C=C/c1ccc2ccccc2n1,0.73,0.01
O=c1cc(CSc2nnc(COc3ccc(Cl)cc3)o2)c2ccccc2[nH]1,0.51,0.67
Cc1ccc(NC(=S)NNC(=O)c2c([N+](=O)[O-])c(C)nn2C)cc1,0.81,-1.1
Cc1sccc1/C=N/NC(=O)c1cccc2ccccc12,0.67,-1.8
CCCN1C2=NCCN2c2cc(C)c(C)cc21,0.11,0.25
COc1ccccc1CNC(=O)c1ccccc1NC(=O)C1=C(C)OCCS1,0.18,-1.6
Cc1ccc(S(=O)(=O)N2CC(O)CC2C(=O)O)cc1 (stereo not given),0.57,1.4
COc1ccc(CCC(=O)NNC(=O)Nc2cccc(Cl)c2)cc1,0.78,-0.04
CCCCn1c(=O)[nH]c(=O)c2c1nc(-c1ccc(-c3ccccc3Br)o1)n2CC,0.8,-1.2
O=C(Nc1cc(=O)c2ccccc2o1)N1CCOCC1,1.7,-0.36
Cc1nc(NCc2ccco2)c2c3c(sc2n1)CCC3,0.48,0.15
CCCCOc1cccc(OCC(=O)Nc2nc3ccccc3[nH]2)c1,0.31,-1.9
CCCc1cc(=O)n2[nH]c(-c3ccc(Br)cc3)cc2n1,0.07,-0.92
Cc1ccccc1OC(=O)n1c(=S)oc2cc(Cl)ccc21,6.9*,2.9*
COc1ccc(CN2CCN(S(=O)(=O)c3ccccc3)CC2)c(OC)c1,1.4,-1.2
CN(Cc1ccccc1)C(=O)CN1C(=O)COc2ccc(S(=O)(=O)N3CCCC3)cc21,0.23,0.58
COc1cc(/C=C\C(=O)NCc2ccc3c(c2)cc(C)n3C)cc(OC)c1OC,0.22,1.9

# Sorted by molecular weight (falling): three of the compounds above
SMILES,KCNQ2 enhance,KCNQ2 enhance baseline
COc1ccc(-n2ncc3c(=O)n(CC(=O)N4c5ccccc5CC4C)cnc32)cc1 (stereo not given),0.02,-0.91
CCCc1cc(=O)n2[nH]c(-c3ccc(Br)cc3)cc2n1,0.07,-0.92
Cc1nc(NCc2ccco2)c2c3c(sc2n1)CCC3,0.48,0.15

# Complete entries as entered above:
# O=c1cc(CSc2nnc(COc3ccc(Cl)cc3)o2)c2ccccc2[nH]1 in the list: KCNQ2 enhance = 0.51; KCNQ2 enhance baseline = 0.67
# Cc1sccc1/C=N/NC(=O)c1cccc2ccccc12 in the list: KCNQ2 enhance = 0.67; KCNQ2 enhance baseline = -1.8

# Next section
SMILES,KCNQ2 enhance,KCNQ2 enhance baseline
Nc1ncc2c(n1)-c1cc(Cl)ccc1SC2,0.08,0.04
COc1ccc2cc(OCC(=O)NNC(=O)Nc3ccc(F)cc3)ccc2c1,0.68,0.33
C=C(C)C(=O)Nc1cccc(C2=NOC3(C2)C[C@H](C(N)=O)N(C(=O)COc2ccc(Cl)cc2)C3)c1 (stereo not given in full),0.05,0.11
S=c1nc(-c2ccccc2)[nH]c2ccc(Br)cc12,29*,0.19*
Cc1ccccc1N=C1NC(=O)/C(=C/c2cccn2C)S1,0.04,-1.2
COc1cc2ncnc(NCc3ccccc3)c2cc1OC,2.7,0.53
Cc1csc(NC(=O)CSc2nc(C(C)C)nc3c2c(=O)n(C)c(=O)n3C)n1,1,0
COc1cc(OC)c(NC(=O)c2cc(S(=O)(=O)N3CCOCC3)cn2C)cc1Cl,0.16,-0.39
CC1CCN(S(=O)(=O)c2ccc(F)c(C(=O)O)c2)CC1,0.25,0.37
COc1cc(/C=N/Nc2nnc3c(n2)[nH]c2ccccc23)ccc1O,0.91,-1
CN1CCN(C(=O)c2cc3sc4ccccc4c3s2)CC1,0.91,0.29
COCc1cc(C)n(CC(=O)NCC2CCCO2)c(=O)c1C#N (stereo not given),0.06,0.36
CCN1CCN(C(c2cccs2)C(C)NC(=O)c2ccccc2OC)CC1 (stereo not given),0.46,-1.4
O=C(Nc1ccc(N2C(=O)C3C4C=CC(C4)C3C2=O)cc1Cl)c1cccs1 (stereo not given),0.07,0.48
COC(=O)CN1C(=O)C(C)(C)Oc2ccc(C(=O)Nc3cccc(OC)c3)cc21,0.98,-0.01
OC(CNCc1ccccn1)c1ccccc1 (stereo not given),0.24,1.3
CC(=O)Nc1ccc(S(=O)(=O)Nc2cccc(-c3ccc4nncn4n3)c2)cc1,0.46,0.97
COc1ccc(OCc2cc(C(=O)N(C)C3CCOCC3)no2)c2ccccc12,0.59,0.37
CN(C)CCSc1nc(-c2ccccc2)nc2c1CCCC2,1.4,-0.53
CC(C)(C)NC(=O)CCN(/N=C/c1ccccc1O)C1=NS(=O)(=O)c2ccccc21,1.6,0.06
